HSV augment – enhancers of HSV replication in host cells, fold increase, host cell viability; AID 1956, 2009; 220,000 tested, 0.005% active; maximum fold increase; HSV replication augmentation in cells;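 active = peak rise of 1.5-fold or more in the series; tested in PC3 cells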;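 also: first round at 10 µM; read as green reporter fluorescence; hits show the peak of a series up to 25 µM; 1 = signal of infected wells without compound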
GALR2 ag – GALR2 receptor agonists, primary screen, cell-based | 140,000 tested, 0.48% active | Galanin receptor type 2 (Homo sapiens), O43603 | activation, %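 (tested at 5 µM)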 | AID 803, 2007 | GALR2-expressing cells, agonist activation read-out;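 active = above mean plus 3 SD of all compounds, about 5% in these data, not always enough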;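 also: 0% = vehicle buffer wells and 100% = reference agonist at full effect; tested in CHO reporter cells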
INS promoter inh – inhibitors of insulin promoter-driven GFP, primary screen, imaging, TRM-6 cells (human fetal islet line), eGFP reporter, cell count | reporter expression induced with tamoxifen | inhibition, % at 2 µM | 130,000 tested, 0.9% active | AID 1273, 2008;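 active = inhibition above the mean plus 3 SD, with well images judged a real hit on visual review, cut at about 60% in these data, passing the limit was not always enough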
PKD1 inh – inhibitors of human PKD1 kinase, biochemical, fluorescence polarization | inhibition, %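 (about 10 µM by stock and volumes)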 | Serine/threonine-protein kinase D1 (Homo sapiens), Q15139 | PKD1 kinase fluorescence polarization assay | AID 797, 2007 | 200,000 tested, 0.056% active;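 active = inhibition of 50% or more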;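 also: controls were vehicle for no effect and a reference inhibitor for full effect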
Target sequence (Q15139 whole entry, looked up): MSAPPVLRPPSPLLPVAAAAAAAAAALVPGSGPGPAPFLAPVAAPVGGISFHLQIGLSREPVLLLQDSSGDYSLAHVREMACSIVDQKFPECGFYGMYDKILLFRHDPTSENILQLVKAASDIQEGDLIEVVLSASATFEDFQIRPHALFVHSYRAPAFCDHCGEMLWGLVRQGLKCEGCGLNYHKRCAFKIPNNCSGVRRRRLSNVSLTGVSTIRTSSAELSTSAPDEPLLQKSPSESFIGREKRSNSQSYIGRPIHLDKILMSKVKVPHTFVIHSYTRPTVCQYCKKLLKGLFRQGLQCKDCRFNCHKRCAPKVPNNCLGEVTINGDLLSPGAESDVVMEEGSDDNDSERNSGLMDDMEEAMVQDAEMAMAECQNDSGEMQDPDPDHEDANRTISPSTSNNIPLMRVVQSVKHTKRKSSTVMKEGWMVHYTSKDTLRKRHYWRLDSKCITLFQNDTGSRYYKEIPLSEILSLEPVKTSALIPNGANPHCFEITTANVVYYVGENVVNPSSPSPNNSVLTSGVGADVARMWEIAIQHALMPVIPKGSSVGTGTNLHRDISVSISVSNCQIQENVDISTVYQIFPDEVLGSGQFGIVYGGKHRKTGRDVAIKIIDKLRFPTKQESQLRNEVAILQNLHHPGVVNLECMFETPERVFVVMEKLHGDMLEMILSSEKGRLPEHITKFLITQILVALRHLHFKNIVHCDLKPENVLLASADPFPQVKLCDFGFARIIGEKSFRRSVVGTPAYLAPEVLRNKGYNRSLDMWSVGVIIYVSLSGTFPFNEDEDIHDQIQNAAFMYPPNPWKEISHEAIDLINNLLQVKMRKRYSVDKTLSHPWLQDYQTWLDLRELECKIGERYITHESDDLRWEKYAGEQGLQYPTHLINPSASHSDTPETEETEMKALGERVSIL
RGS16-Gao HTS – modulators of RGS16 binding to Galphao, primary screen, biochemical, human proteins, multiplexed bead flow cytometry; AID 1441, 2008; Regulator of G-protein signaling 16 (Homo sapiens) + Guanine nucleotide-binding protein …; bead-based flow cytometry RGS16-Galphao binding, fluorescence; actives lie on both sides; binding response (% of control), % at 10 µM; 220,000 tested, 0.38% active;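 active = below 25% or above 175%, edge rows of some plates excepted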;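 also: Galphao activated by GDP with aluminum fluoride before binding; 100% = wells without compound and 0% = beads without RGS; some results beyond the cut were filed as inactive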
INS promoter inh cell count – recorded beside INS promoter inh, whose call it bears; normalized cell count, %; measured here: cell count, toxicity; reference of the scale not given here;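 cells exposed to compound for 48 h; stained nuclei by imaging scaled within each plate; lower means fewer cells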
HSV augment primary fold – also measured in HSV augment; calls as there; fold increase; compound at 10 µM; measured here: primary screen fold increase 10 uM; tested in PC3 cells;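 GFP signal in the first replicate; 1 = infected wells without compound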
Starred values were filed as active, the others as inactive.

CCCc1nc(SCc2ccccc2Cl)n[nH]1 was read as HSV augment inactive, GALR2 ag -0.9, INS promoter inh -7, PKD1 inh 0, RGS16-Gao HTS 108, INS promoter inh cell count 72 and HSV augment primary fold 0.92.
For COc1ccccc1N1CCN(CC(=O)Nc2ccc(CN3CCCCC3)cc2)CC1 the results were HSV augment inactive, GALR2 ag -0.2, INS promoter inh 21, PKD1 inh -14, RGS16-Gao HTS 104, INS promoter inh cell count 148 and HSV augment primary fold 0.74.
`Cc1cc(=O)n2c3ccccc3n(CC(O)CN3CCN(CCO)CC3)c2c1C#N` (configuration not stated) gave HSV augment inactive, PKD1 inh -2, RGS16-Gao HTS 172 and HSV augment primary fold 1.
Screening Cc1ccc(NC(=O)C(C)OC(=O)c2ccc(NS(=O)(=O)c3ccc(F)c(F)c3)cc2)cc1 (configuration not stated) returned HSV augment inactive, GALR2 ag -2.3, INS promoter inh 15, PKD1 inh -20, RGS16-Gao HTS 111, INS promoter inh cell count 96 and HSV augment primary fold 0.78.
For O=C(c1cccnc1)N1CCN(c2ccc3ccccc3n2)CC1 the results were HSV augment inactive, INS promoter inh -73, PKD1 inh 0, RGS16-Gao HTS 102, INS promoter inh cell count 105 and HSV augment primary fold 0.97.
Screening CC(=O)NC(=S)Nc1ccccc1C(=O)Nc1ccccc1 returned HSV augment inactive, GALR2 ag -1.7, PKD1 inh 7, RGS16-Gao HTS 86 and HSV augment primary fold 1.2.
`Cn1c(=O)[nH]c(=O)c2[nH]c(CN3CCN(Cc4ccccc4)CC3)nc21` gave HSV augment inactive, RGS16-Gao HTS 105 and HSV augment primary fold 1.
CCC(C)NC(=O)c1ccccc1NC(=O)CN1C(=O)c2ccccc2S1(=O)=O (configuration not stated) was read as HSV augment inactive, GALR2 ag -0.2, INS promoter inh -29, PKD1 inh 3, RGS16-Gao HTS 99, INS promoter inh cell count 51 and HSV augment primary fold 0.75.
CC(=O)COC(=O)C1CC(=O)N(c2ccc(C)c(C)c2)C1 (configuration not stated) was read as HSV augment inactive, INS promoter inh -164, PKD1 inh -3, RGS16-Gao HTS 112, INS promoter inh cell count 82 and HSV augment primary fold 1.
Screening O=C(COc1ccccc1Cl)N1CCN(c2ccc(F)cc2)CC1 returned HSV augment inactive, GALR2 ag -2.2, INS promoter inh 17, PKD1 inh -3, RGS16-Gao HTS 107, INS promoter inh cell count 131 and HSV augment primary fold 0.81.
Cc1occc1-c1nnc(SCC(=O)N2CCOCC2)n1CC(C)C was read as HSV augment inactive, GALR2 ag -2.3, INS promoter inh -7, PKD1 inh -9, RGS16-Gao HTS 99, INS promoter inh cell count 137 and HSV augment primary fold 1.
Screening Cn1cnnc1Sc1cc(N2CCN(S(=O)(=O)c3ccc4ccccc4c3)CC2)ccc1[N+](=O)[O-] returned GALR2 ag -0.5, PKD1 inh -3 and RGS16-Gao HTS 95.
For CCOc1cccc(OCCOCCn2cnc3ccccc3c2=O)c1 the results were HSV augment inactive, GALR2 ag -2.2, INS promoter inh -103, PKD1 inh 1, RGS16-Gao HTS 110, INS promoter inh cell count 37 and HSV augment primary fold 0.82.
`CSCCC(NC(N)=O)C(=O)Nc1cccc(S(=O)(=O)N2CCOCC2)c1` (configuration not stated) gave HSV augment inactive, PKD1 inh 1, RGS16-Gao HTS 95 and HSV augment primary fold 0.88.
CC(C)C[C@@H](CSc1ccc(Br)cc1)N1CCN(CCc2ccccc2)CCC1=O was read as HSV augment inactive, RGS16-Gao HTS 103 and HSV augment primary fold 0.85.
`O=C(NC1CCCCC1)c1cc(F)cc2c1OCOC2` gave HSV augment inactive, RGS16-Gao HTS 104 and HSV augment primary fold 0.97.
`COc1ccc(N2CCN(C(=O)CSc3nnc4c(C)cc5ccccc5n34)CC2)cc1` gave HSV augment inactive, GALR2 ag 0.1, INS promoter inh -13, PKD1 inh 1, RGS16-Gao HTS 98, INS promoter inh cell count 121 and HSV augment primary fold 0.89.
Screening O=S(=O)(c1cccs1)N1CCN(Cc2nc3ccccc3s2)CC1 returned HSV augment inactive, GALR2 ag -0.8, INS promoter inh 25, PKD1 inh -11, RGS16-Gao HTS 106, INS promoter inh cell count 67 and HSV augment primary fold 0.95.
For O=C(O)CSC(C(=O)Nc1ccc(C(F)(F)F)cc1)c1ccccc1 (configuration not stated) the results were HSV augment inactive, GALR2 ag 0.5, INS promoter inh -17, PKD1 inh -8, RGS16-Gao HTS 102, INS promoter inh cell count 61 and HSV augment primary fold 1.1.
Screening COc1ccc(CN2CC(C(=O)NCCN3CCOCC3)CC2=O)cc1 (configuration not stated) returned HSV augment inactive, GALR2 ag -0.8, INS promoter inh 25, PKD1 inh -2, RGS16-Gao HTS 102, INS promoter inh cell count 173 and HSV augment primary fold 0.84.
Screening Cc1occc1C(=O)NC(C)C12CC3CC(CC(C3)C1)C2 (configuration not stated) returned HSV augment inactive, PKD1 inh 0, RGS16-Gao HTS 94 and HSV augment primary fold 0.98.
Screening N#Cc1cc(Oc2ccc(Cl)cc2)c(N2CCOCC2)cc1C#N returned HSV augment inactive, GALR2 ag 1.3, INS promoter inh -25, PKD1 inh -6, RGS16-Gao HTS 102, INS promoter inh cell count 280 and HSV augment primary fold 1.1.
`CC1(C)CC(=O)C(N=Nc2c(Cl)cc(Cl)cc2Cl)=C(O)C1` gave HSV augment inactive, GALR2 ag -0.7, PKD1 inh -1, RGS16-Gao HTS 108 and HSV augment primary fold 1.1.
For O=C(NCCO)c1ccc2c3n(nc2c1)-c1ccc(Cl)cc1CO3 the results were HSV augment inactive, RGS16-Gao HTS 110 and HSV augment primary fold 1.1.
Screening Cc1ccc(N2CC(C(=O)NCCC(C)C)CC2=O)cc1 (configuration not stated) returned HSV augment inactive, GALR2 ag -1.9, INS promoter inh 56, PKD1 inh -8, RGS16-Gao HTS 98, INS promoter inh cell count 148 and HSV augment primary fold 0.94.
For COc1ccc(C(C)=O)cc1CN1C(=O)NC2(CCCCC2C)C1=O (configuration not stated) the results were HSV augment inactive, GALR2 ag -3.0, INS promoter inh -26, PKD1 inh 0, RGS16-Gao HTS 100, INS promoter inh cell count 136 and HSV augment primary fold 0.95.
`CN1CCN(c2nc(C#N)cc(-c3ccccc3)n2)CC1` gave HSV augment inactive, GALR2 ag -0.3, INS promoter inh 8, PKD1 inh -7, RGS16-Gao HTS 105, INS promoter inh cell count 64 and HSV augment primary fold 0.78.
For O=C(O)CCNS(=O)(=O)c1cccc(Br)c1 the results were HSV augment inactive, RGS16-Gao HTS 97 and HSV augment primary fold 1.1.
Screening O=C1c2ccccc2-c2cccc(C(=O)N3CCCCCC3)c21 returned HSV augment inactive, GALR2 ag -1.4, INS promoter inh 0, PKD1 inh -12, RGS16-Gao HTS 106, INS promoter inh cell count 112 and HSV augment primary fold 0.95.
CSc1ccc(CN2CCCC(CO)(Cc3ccccc3)C2)cc1 (configuration not stated) was read as HSV augment inactive, INS promoter inh 0, PKD1 inh 8, RGS16-Gao HTS 101, INS promoter inh cell count 101 and HSV augment primary fold 1.1.

Three entries from above, arranged by molecular weight, lowest first.
`O=C(NC1CCCCC1)c1cc(F)cc2c1OCOC2` gave HSV augment inactive, RGS16-Gao HTS 104 and HSV augment primary fold 0.97.
Screening Cc1occc1C(=O)NC(C)C12CC3CC(CC(C3)C1)C2 (configuration not stated) returned HSV augment inactive, PKD1 inh 0, RGS16-Gao HTS 94 and HSV augment primary fold 0.98.
For O=C(NCCO)c1ccc2c3n(nc2c1)-c1ccc(Cl)cc1CO3 the results were HSV augment inactive, RGS16-Gao HTS 110 and HSV augment primary fold 1.1.

Later entries
`CCOc1ncnc2c1oc1nc(CC(C)C)c3c(c12)CC(C)(C)OC3` gave HSV augment inactive, GALR2 ag -1.2, INS promoter inh -29, PKD1 inh 0, RGS16-Gao HTS 104, INS promoter inh cell count 97 and HSV augment primary fold 0.98.
`Cc1ccc2nc(C)c(C(=O)N/N=C/c3ccco3)cc2c1` gave HSV augment inactive, GALR2 ag -2.5, INS promoter inh 22, PKD1 inh -4, RGS16-Gao HTS 50, INS promoter inh cell count 85 and HSV augment primary fold 1.1.
Screening O=C(NCc1ccccn1)c1c(Cl)cccc1Cl returned HSV augment inactive, GALR2 ag -2.5, INS promoter inh 7, PKD1 inh 2, RGS16-Gao HTS 103, INS promoter inh cell count 210 and HSV augment primary fold 0.84.
COC(=O)C1=C(C)NC2=C(C(=O)c3ccccc32)C1c1cccc(OC)c1 (configuration not stated) was read as HSV augment inactive, RGS16-Gao HTS 104 and HSV augment primary fold 0.96.
CC(=O)N/C(=C/c1ccc2c(c1)OCO2)C(=O)NCCCO was read as HSV augment inactive, GALR2 ag -1.1, INS promoter inh -5, PKD1 inh -11, RGS16-Gao HTS 101, INS promoter inh cell count 102 and HSV augment primary fold 0.89.
Cc1ccc(C(C)C)c(OCC(=O)NN=C2CCCCCCC2)c1 was read as HSV augment inactive, GALR2 ag 1.0, PKD1 inh -10, RGS16-Gao HTS 99 and HSV augment primary fold 0.77.
Screening Cc1cc(C(=O)CSc2nnc(-c3ccc(Cl)cc3)n2CC2CCCO2)c(C)n1C (configuration not stated) returned GALR2 ag -2.2, INS promoter inh -47, PKD1 inh -20, RGS16-Gao HTS 75 and INS promoter inh cell count 110.
For COc1ccc(C(CNC(=O)c2cccc(Br)c2)N2CCCC2)cc1 (configuration not stated) the results were HSV augment inactive, GALR2 ag -3.3, INS promoter inh -27, PKD1 inh -1, RGS16-Gao HTS 98, INS promoter inh cell count 90 and HSV augment primary fold 0.84.
`CCC1Oc2ccc(C)cc2N(CC(=O)N2CCN(c3ccc(F)cc3)CC2)C1=O` (configuration not stated) gave HSV augment inactive, GALR2 ag -3.1, PKD1 inh -4, RGS16-Gao HTS 106 and HSV augment primary fold 0.88.
`O=c1oc2ccccc2c(Nc2cc3ccccc3cc2O)c1[N+](=O)[O-]` gave HSV augment inactive, PKD1 inh -1, RGS16-Gao HTS 102 and HSV augment primary fold 0.88.
For Cc1ccccc1NC(=O)Cn1nnc2c(cnn2-c2ccc(F)cc2)c1=O the results were HSV augment inactive, GALR2 ag -2.0, PKD1 inh 4, RGS16-Gao HTS 99 and HSV augment primary fold 1.
For O=C1C=C(O)CC(c2ccc(Cl)cc2)C1 (configuration not stated) the results were GALR2 ag 0.0, INS promoter inh -47, PKD1 inh -3, RGS16-Gao HTS 98 and INS promoter inh cell count 167.
For CCc1nc(N)c(C#N)c(-c2cccnc2)c1C the results were HSV augment inactive, GALR2 ag 0.4, INS promoter inh 27, PKD1 inh 13, RGS16-Gao HTS 102, INS promoter inh cell count 125 and HSV augment primary fold 0.88.
For Cc1ccc(S(=O)(=O)/N=C2/NC(=O)/C(=C/c3cccnc3)S2)cc1 the results were HSV augment inactive, GALR2 ag -2.3, INS promoter inh 29, PKD1 inh -5, RGS16-Gao HTS 97, INS promoter inh cell count 133 and HSV augment primary fold 0.92.
Screening CN(C)CCCN(C(=O)c1ccco1)c1nc2ccc(Br)cc2s1 returned HSV augment inactive, INS promoter inh -72, PKD1 inh 2, RGS16-Gao HTS 99, INS promoter inh cell count 120 and HSV augment primary fold 0.79.

Of the compounds above, 2 contain a COOH group:
For O=C(O)CSC(C(=O)Nc1ccc(C(F)(F)F)cc1)c1ccccc1 (configuration not stated) the results were HSV augment inactive, GALR2 ag 0.5, INS promoter inh -17, PKD1 inh -8, RGS16-Gao HTS 102, INS promoter inh cell count 61 and HSV augment primary fold 1.1.
For O=C(O)CCNS(=O)(=O)c1cccc(Br)c1 the results were HSV augment inactive, RGS16-Gao HTS 97 and HSV augment primary fold 1.1.

Additional records:
Screening Cc1ccccc1OCC(=O)Nc1ccc(NC(=O)c2ccco2)cc1 returned HSV augment inactive, PKD1 inh 7, RGS16-Gao HTS 106 and HSV augment primary fold 1.
`Cc1cc(=O)[nH]c(CN2CCOCC2)n1` gave HSV augment inactive, INS promoter inh -6, PKD1 inh 3, RGS16-Gao HTS 104, INS promoter inh cell count 127 and HSV augment primary fold 1.3.
`CCn1cc(CNC(=O)CCSc2nc(-c3ccco3)cc(C(F)(F)F)n2)cn1` gave HSV augment inactive, GALR2 ag -1.0, INS promoter inh -8, PKD1 inh -4, RGS16-Gao HTS 97, INS promoter inh cell count 117 and HSV augment primary fold 0.92.
Screening N#C/C(=C\c1cccc([N+](=O)[O-])c1)c1ccccn1 returned HSV augment inactive, PKD1 inh 3, RGS16-Gao HTS 93 and HSV augment primary fold 0.8.
For COc1cc(C2N(c3ccccc3)CCN2c2ccccc2)cc(OC)c1OC the results were HSV augment inactive, GALR2 ag -2.9, PKD1 inh 7, RGS16-Gao HTS 104 and HSV augment primary fold 0.81.
Screening CCC1SC(CC)C(=O)N(CC(=O)NCCc2ccccc2)C1=O (configuration not stated) returned HSV augment inactive, INS promoter inh -8, PKD1 inh -4, RGS16-Gao HTS 109, INS promoter inh cell count 135 and HSV augment primary fold 0.98.

Assay outcomes as filed in PubChem.
